# Assay outcomes (PubChem)
# BmaI1: BmaI1 acyl-homoserine lactone synthase inhibition – biochemical, fluorescence intensity, with counterscreen (AID 720554). BmaI1 enzyme assay, fluorescence intensity; hits give high values; test concentration not given here; a few actives read low; strong numbers were not always called active. 12,000 tested, 0.4% active. inhibition, %;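 active = both replicates within 2 robust z-scores of the inhibited control and a quiet counterscreen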;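 note: 0% = uninhibited enzyme and 100% = inhibited control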
# BmaI1 counterscreen: second read-out of BmaI1, no call of its own (marks repeat the call); inhibition, %; measured here: counterscreen; design of the counterscreen not given here;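 first of two replicates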
# * marks the source's active call; other numbers are inactive results. An excerpt, so the mix of outcomes need not match the whole.
SMILES,BmaI1,BmaI1 counterscreen
COc1cc2c(cc1OC)C(c1ccccc1)N(C(=O)COC(=O)C1=NNC(=O)CC1)CC2 (configuration not stated),28,20
CCN(Cc1nc2ccccc2c(=O)[nH]1)C(=O)Nc1ccc(Cl)cc1,26,16
CN(CC(=O)Nc1ccc(N2CCOCC2)cc1)CC(=O)Nc1ccc2c(c1)OCO2,18,-2
CN(CC(=O)NC(=O)Nc1ccc2c(c1)OCCO2)Cc1ccc2c(c1)OCCO2,13,4
NC(=O)Cn1c(=O)cnc2ccccc21,-8,2
O=C(COC(=O)C1CCC(=O)N1)Nc1nc(-c2ccccc2)cs1 (configuration not stated),2,-1
COc1ccccc1N1CCN(C2Sc3ccccc3NC2=O)CC1 (configuration not stated),3,2
Cc1ccc(C(=O)Nc2ccccc2C(=O)NCc2ccco2)cc1,2,6
Cc1nc(N2CC(O)CC2C(N)=O)c2c(-c3ccccc3)csc2n1 (configuration not stated),-2,6
Cc1c(C(=O)c2ccc(OC(F)F)cc2)oc2ccc(F)cc12,12,14
O=C(O)CSc1nc2c(n1-c1ccccc1)CCCC2,6,1
CN(C)CCC(c1ccc(Cl)cc1)c1ccccn1 (configuration not stated),6,-2
CC(=O)NC12CC3CC(C1)CC(C(=O)OCC(=O)Nc1cc(C)nn1-c1ccccc1)(C3)C2,16,12
Cc1c(C#N)c(NC(=O)Cc2c(Cl)cccc2Cl)n(C2CCCCC2)c1C,8,4
Cc1nn(CCOc2c(Cl)cccc2Cl)c(=O)c(C#N)c1C,4,2
O=C(NC1CCCCCC1)[C@@H]1CCCN1S(=O)(=O)c1ccc2c(c1)OCCO2,20,6
CC1CN(S(=O)(=O)c2ccc(NC(=O)CCS(=O)(=O)c3ccccc3)cc2)CC(C)O1 (configuration not stated),2,-4
O=C(COC(=O)Cc1ccccc1)Nc1cccnc1Cl,10,8
O=C(Nc1ccc(Oc2ccccc2)cc1)C1CCN(c2nc3ccccc3o2)CC1,10,2
CC(OC(=O)c1cccc(NS(C)(=O)=O)c1)C(=O)Nc1ccc(N2CCOCC2)cc1 (configuration not stated),4,7
O=C(Nc1nccs1)C1CC1,8,14
CC(=O)N1CCC(=NNc2ccnc3cc(Cl)ccc23)CC1,48,25
O=C(Nc1ccccc1C(=O)OCc1csc(Nc2ccccc2)n1)c1ccco1,13,5
Cn1c(/C(C#N)=c2/s/c(=C\c3ccsc3)c(=O)n2-c2ccccc2)nc2ccccc21,32,13
Cc1nc(N(C)CC(=O)N2CCOCC2)c2c(-c3ccccc3)csc2n1,14,8
COc1ccccc1S(=O)(=O)Nc1ccc2nc(SC)sc2c1,22,6
COc1ccccc1OCC(=O)NCC1CCCCC1,-6,-6
O=C(CCC(=O)c1ccc2c(c1)OCCO2)OCc1ncc(-c2ccccc2)o1,7,1
CSc1ccc(C(=O)CCC(=O)O)cc1,-6,-8
Cc1onc(-c2ccccc2)c1C(=O)OCC(=O)N(C)Cc1cccs1,12,3
C[C@@H](O)[C@H]1C(=O)N2C(C(=O)O)=C(S[C@@H]3CN[C@H](C(=O)N(C)C)C3)[C@H](C)[C@H]12,-4,0
Cc1ccc(C)n1-c1ccc(C(=O)OCc2nc3ccsc3c(=O)[nH]2)cc1,19,4
CC(C#N)(NC(=O)CSc1ncccn1)C1CC1 (configuration not stated),0,6
Cc1cc(C)cc(NC(=O)CSCCn2c(C)csc2=O)c1,21,6
CN(CCc1ccccn1)c1nc(C(F)(F)F)nc2ccccc12,4,4
O=C(c1ccccc1)c1ccc(C(=O)N2CCN(c3ccc(O)cc3)CC2)cc1,99,36
CCC1(C)NC(=O)N(/N=C/c2c(O)ccc3ccccc23)C1=O (configuration not stated),24,10
CN1CC[C@@H](c2ccc(F)cc2)[C@H](COc2ccc3c(c2)OCO3)C1,-4,0
Cc1cc(CCN)c(C)n1-c1ccccc1,20,4
C=C1c2ccccc2N=C(SCC(=O)Nc2cccnc2Cl)N1C,-10,22
O[C@@H](c1cc(C(F)(F)F)nc2c(C(F)(F)F)cccc12)[C@H]1CCCCN1,8,20
O=C(O)C1CCN(C(=O)/C=C/c2ccccc2)CC1,6,1
CC1CCCCN1C(=O)COC(=O)Cc1c[nH]c2ccccc12 (configuration not stated),12,8
CCOC(=O)C1=C(C)NC(C)=C(C(=O)OCC)C1C(=O)OCC(=O)N1CCc2ccccc2C1,10,8
Cc1nn(Cc2ccc(F)cc2)c2sc(C(=O)Nc3ccc(S(=O)(=O)N4CCCC4)cc3)cc12,3,5
CC1=C/C(=N\Nc2ncc(Cl)cc2Cl)CC(C)(C)C1,54,36
CCN(CC(=O)NCc1cccs1)C(=O)Cc1c(C)noc1C,12,6
Cc1cc(C)nc(Sc2ccc(S(=O)(=O)C(F)F)cc2S(=O)(=O)C(F)F)n1,18,12
Clc1cc(CNCc2ccccc2CN2CCOCC2)cc2c1OCCCO2,16,7
CC(C(=O)N1CCCC1)N1CCN(S(=O)(=O)c2ccc3ccccc3c2)CC1 (configuration not stated),-5,-8
O=C(COC(=O)CSc1nc2ccccc2o1)NC1CC1,12,11
O=C(Cn1[nH]c(=O)c2ccccc2c1=O)NCCN1C(=O)S/C(=C\c2ccccc2)C1=O,18,12
S=C(NCCNc1ccccn1)NC1CC1,10,6
CN(CC(=O)Nc1ccc2c(c1)CCC2)C1CCS(=O)(=O)C1 (configuration not stated),13,2
Nc1nnc(SCc2cccc(S(=O)(=O)N3CCOCC3)c2)s1,18,4
CS(=O)(=O)N1CCc2cc(C(=O)Cn3cc(C(F)(F)F)ccc3=O)ccc21,12,-2
OC1CCC(NCC(O)COCc2ccccc2Cl)CC1 (configuration not stated),2,7
Cc1ccc(NC2=NC(C)CS2)c(C)c1 (configuration not stated),4,4
On1nnc2ccccc21,14,7
CCOC(=O)C1CCCN(C(=O)CN2C(=O)c3ccccc3S2(=O)=O)C1 (configuration not stated),11,7

# A portion from the list above, as a working copy:
SMILES,BmaI1,BmaI1 counterscreen
C=C1c2ccccc2N=C(SCC(=O)Nc2cccnc2Cl)N1C,-10,22
O[C@@H](c1cc(C(F)(F)F)nc2c(C(F)(F)F)cccc12)[C@H]1CCCCN1,8,20
O=C(O)C1CCN(C(=O)/C=C/c2ccccc2)CC1,6,1
CC1CCCCN1C(=O)COC(=O)Cc1c[nH]c2ccccc12 (configuration not stated),12,8
CCOC(=O)C1=C(C)NC(C)=C(C(=O)OCC)C1C(=O)OCC(=O)N1CCc2ccccc2C1,10,8
Cc1nn(Cc2ccc(F)cc2)c2sc(C(=O)Nc3ccc(S(=O)(=O)N4CCCC4)cc3)cc12,3,5
CC1=C/C(=N\Nc2ncc(Cl)cc2Cl)CC(C)(C)C1,54,36
CCN(CC(=O)NCc1cccs1)C(=O)Cc1c(C)noc1C,12,6
Cc1cc(C)nc(Sc2ccc(S(=O)(=O)C(F)F)cc2S(=O)(=O)C(F)F)n1,18,12
Clc1cc(CNCc2ccccc2CN2CCOCC2)cc2c1OCCCO2,16,7
CC(C(=O)N1CCCC1)N1CCN(S(=O)(=O)c2ccc3ccccc3c2)CC1 (configuration not stated),-5,-8
O=C(COC(=O)CSc1nc2ccccc2o1)NC1CC1,12,11
O=C(Cn1[nH]c(=O)c2ccccc2c1=O)NCCN1C(=O)S/C(=C\c2ccccc2)C1=O,18,12
S=C(NCCNc1ccccn1)NC1CC1,10,6
CN(CC(=O)Nc1ccc2c(c1)CCC2)C1CCS(=O)(=O)C1 (configuration not stated),13,2
Nc1nnc(SCc2cccc(S(=O)(=O)N3CCOCC3)c2)s1,18,4
CS(=O)(=O)N1CCc2cc(C(=O)Cn3cc(C(F)(F)F)ccc3=O)ccc21,12,-2
OC1CCC(NCC(O)COCc2ccccc2Cl)CC1 (configuration not stated),2,7

# (next part)
SMILES,BmaI1,BmaI1 counterscreen
CCN(CC(=O)NC1CCS(=O)(=O)C1)CC(=O)c1c(N)n(Cc2ccccc2)c(=O)n(C)c1=O (configuration not stated),11,2
COC(=O)c1c(C)[nH]c(C(=O)N2CCN(c3ccccc3)CC2)c1C,15,11
CCN(C(=O)CSc1nc(N)nc(N)n1)C1=CCCC1,0,2
CCN(CC(=O)NCc1ccc(Cl)cc1)C(=O)c1c(C)noc1C,-4,-12
Cc1ccc(C(=O)OCN2C(=O)c3ccccc3C2=O)cc1NC(=O)c1ccco1,14,6
C(=Nc1nc2ccccc2nc1N1CCOCC1)N1CCN(C(c2ccccc2)c2ccccc2)CC1,7,8
Cc1cc(C)c(C)c(S(=O)(=O)N2CCN(CN3C(=O)CNC3=O)CC2)c1C,8,2
Cc1noc(C)c1COc1ccc(C(=O)NCCNc2ncc(C(F)(F)F)cc2Cl)cc1,15,5
CC(C)C(NC(=O)CSc1nnc(-c2ccc(F)cc2)o1)c1nc2ccccc2[nH]1 (configuration not stated),-1,4
COc1ccc(CC(=O)NCC(C)(C)N2CCOCC2)cc1,-7,-8
Cc1cc(C)c2nc(SCC(=O)c3ccco3)cc(C)c2c1,8,6
CC(Sc1ccccc1F)C(=O)Nc1ccc(S(N)(=O)=O)cc1 (configuration not stated),10,1
Cc1cc(-n2c(C)cc(C(=O)CSc3ccc4c(c3)OCCO4)c2C)no1,18,-2
O=C(CC1OC(=O)c2ccccc21)NC1CC1 (configuration not stated),20,14
CN1CCC(N(C)S(=O)(=O)c2ccc(C(=O)NN)cc2)CC1,-7,-2
CCOC(=O)c1ccc(NS(=O)C23CC4CC(CC(C4)C2)C3)cc1 (configuration not stated),9,3
CC1=C/C(=N\Nc2nncc3ccccc23)CC1,-5,-12
CC1Sc2ccc(C(=O)Oc3ccc4c(c3)OCO4)cc2NC1=O (configuration not stated),36,2
O=C(COC(=O)c1ccc2c(c1)OCO2)c1ccccc1,9,10
O=C(CCN1C(=O)NC2(CCCC2)C1=O)NCc1cccs1,-2,-10
CCOC(=O)N1CCCN(CC(=O)NC(C)(C)C)CC1,14,6
CC(C)Cn1c(N)c(C(=S)NC(=O)c2ccco2)c(=O)n(C)c1=O,30,26
CC1CC(C)CN(S(=O)(=O)c2cccc(C(=O)Oc3ccc4c(c3)OCO4)c2)C1 (configuration not stated),12,9
O=C(OCc1cc(=O)n2ccsc2n1)c1ccc(NS(=O)(=O)c2ccc3c(c2)OCCO3)cc1,12,0
O=C(Cn1[nH]c(=O)c2ccccc2c1=O)NCc1ccncc1,3,4
CCCCn1nc(C(=O)Nc2ccccc2C(C)C)ccc1=O,0,2
OC(CNc1nc(-c2cccnc2)nc2ccccc12)c1ccccc1 (configuration not stated),8,8
O=C(NCC(c1ccco1)N1CCCCC1)c1ccc2c(=O)n3c(nc2c1)CCCCC3 (configuration not stated),28,6
CNC(=S)N(C)CC(=O)Nc1c(Cl)cccc1Cl,69,4
Nc1ccccc1SCc1ccccc1,36,20
CCCn1c(NC(=O)CCNC(C)=O)nc2ccccc21,15,7
COc1ccc(NC(=O)COc2ccc(C)c(C)c2)cn1,10,2
C/C=C/c1ccc(OCC(O)CN(C)C2CCCCC2)c(OC)c1 (configuration not stated),0,-3
Cc1ccc(C)c(OCCSc2ncccn2)c1,22,14
CCCCn1c(N)c(N(C)C(=O)CSc2nnc(-c3ccc(F)cc3)o2)c(=O)[nH]c1=O,2,1
N#Cc1cccc(NC(=O)COC(=O)Cn2nc(-c3ccccc3)oc2=O)c1,-3,-8
Cc1[nH]c(SCC(=O)Nc2cccc(C#N)c2)nc1Cc1ccccc1,12,5
O=C(O)/C=C/c1cc(F)cc2c1OCOC2,13,1
CCCCN=C1SCC(c2cc3ccccc3o2)=NN1C,14,9
CN1[C@@H]2CC[C@H]1CC(OC(=O)c1c[nH]c3ccccc13)C2 (some centres not stated),8,1
CC(C)C(=O)Nc1c(-c2nc(-c3ccccc3)cs2)cnn1-c1ccccc1,4,6
Cc1cccc(N=C2NN=C(c3cc(C)n(C)c3C)CS2)c1C,24,18
CC1CCN(C(=O)COC(=O)c2nccnc2N)CC1,-8,-12
CC(C)(C)C(=O)Cn1cnc2ccccc2c1=O,11,4
CC(=O)NCc1ccc(C(=O)CSc2nc(C)nc3scc(-c4cccs4)c23)o1,-9,4
Cc1ccc(NC(=O)CSc2ncccn2)c(S(=O)(=O)N2CCCCC2)c1,8,4
CC(=O)Nc1ccccc1C(=O)C(=S)N1CCN(C)CC1,8,4
C=CCn1c(C)cc(C(=O)COC(=O)C2C(C(=O)OCC)=C(C)NC(C)=C2C(=O)OCC)c1C,1,-7
O=C(CN(Cc1ccccc1)S(=O)(=O)c1ccccc1)NC1=NCCS1,14,0
COc1ccc(C(=O)OCc2nnc(-c3ccccc3)o2)cc1S(=O)(=O)Nc1ccc(C)cc1,7,0
Cc1cc2ccccn2c1C(=O)c1ccco1,18,6
CCOc1ccccc1N1CCN(CC(=O)Nc2ccc3c(c2)OC(F)(F)O3)CC1,8,-2
O=S(=O)(NCc1cccs1)c1ccc(Br)cc1,8,4
Cc1c(C(=O)N2CCC(C(N)=O)CC2)oc2ccc(Br)cc12,2,-6
O=C(OCc1cc(=O)oc2cc(O)ccc12)c1cccnc1Cl,8,5
CCN(CC)S(=O)(=O)c1ccc(N2CC(C(=O)Nc3ccc4c(c3)OCO4)CC2=O)cc1 (configuration not stated),15,5
Cc1ccc(C2=NN(C(=O)COC(=O)c3ccc(-n4cnnn4)cc3)C(c3ccco3)C2)cc1 (configuration not stated),8,2
O=C(/C=N/O)Nc1ccc(C(=O)O)cc1,16,4
Cc1csc(NC(=O)CC(C)(C)C)n1,6,-3
CN(C)S(=O)(=O)c1ccc(C(=O)OCC(=O)NCc2ccccc2)cc1,-10,-10

# Additional entries follow.
SMILES,BmaI1,BmaI1 counterscreen
O=C(Cn1cc(C(F)(F)F)cc(Cl)c1=O)Nc1ncccn1,-6,-6
Cc1cc(/C=C/C(=O)N(C)Cc2ccco2)c(C)n1-c1ccnn1C(C)C,14,4
Oc1c(Cl)cc(Cl)c2cccnc12,12,-36
CN(C(=O)CSc1nnc2n1CCCCC2)C1(C#N)CCCCC1,5,-4
CCCn1c(N)c(N2CCOCC2)c(=O)n(CC(=O)NCc2ccc(F)cc2)c1=O,-2,-4
O=C(CSc1n[nH]c(-c2ccccc2)n1)NCC1COc2ccccc2O1 (configuration not stated),18,6
Cc1cc(C)n(CC(=O)NN=C2CCCCCC2)n1,-42,-26
CC(OC(=O)c1cccc(S(C)(=O)=O)c1)C(=O)Nc1ccccc1C#N (configuration not stated),16,10
